HPGD block: HPGD (human) dehydrogenase inhibition; P15428; purified HPGD, NADH fluorescence kinetic, PGE2 substrate; Potency, µM, for inactives: at the highest dose activity change, negative = inhibition, usual class: inhibitors; actives 4.3% (n = 150,000); AID 894; active = well fitted inhibition curve with a large enough effect (not every such curve was filed as active); inconclusive = small, poorly fitted or top-dose-only effect, or another doubt; inactive = no such curve, though single readings can be large or run the other way;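 further: top concentration of the series not given in the record; plate controls included wells without enzyme; inactives centre near -10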
Target sequence (P15428 whole entry, looked up): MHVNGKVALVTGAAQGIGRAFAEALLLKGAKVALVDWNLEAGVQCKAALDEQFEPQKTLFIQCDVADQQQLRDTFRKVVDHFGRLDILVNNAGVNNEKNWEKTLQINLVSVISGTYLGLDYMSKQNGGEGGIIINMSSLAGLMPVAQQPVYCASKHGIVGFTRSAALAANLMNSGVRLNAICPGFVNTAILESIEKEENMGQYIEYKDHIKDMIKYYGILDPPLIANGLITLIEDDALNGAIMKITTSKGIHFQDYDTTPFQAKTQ
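20 nM HPGD preincubated 15 min at room temperature with compound in 50 mM Tris-HCl pH 8, 0.01% Tween 20. Started with 1 mM NAD+ and 30 uM prostaglandin E2; NADH fluorescence (360/450 nm) read 5 times over 30-s intervals, last minus first.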
Numbers without * were called inactive; & = joins results of further samples. On the % scale 0 is the no-effect control and ±100 the full control effect; potency means the concentration at half of the fitted maximal effect. A portion of the library, so the mix of outcomes need not match the whole.

For CCC(=O)Nc1nc2ccccc2n1Cc1ccccc1 the results were HPGD block -9%.
Screening CC1=NN(C(=O)Cn2ccc([N+](=O)[O-])n2)C(O)(C(F)(F)F)C1 (configuration not stated) returned HPGD block -5%.
O=C(OCCN1C(=O)c2ccccc2C1=O)c1ccco1 was read as HPGD block -3%.
CC(C)Cc1nnc(NC(=O)CCC(=O)NC2CCCc3ccccc32)s1 (configuration not stated) was read as HPGD block -1%.
For COc1ccc(CN2CCOCC2)c(C)c1C the results were HPGD block -1%.
CCC(=O)Oc1ccc2c(c1)CCC1C2CC[C@]2(C)C(OC(=O)CC)CCC12 (some centres not stated) was read as HPGD block -7%.
`O=C(COC(=O)CCCN1C(=O)c2cccc3cccc(c23)C1=O)Nc1cccc(Br)c1` gave HPGD block inconclusive.
`CCOC(=O)C(C)On1c(-c2ccccc2)nc2ccc([N+](=O)[O-])cc21` (configuration not stated) gave HPGD block -16%.
For O=S(=O)(c1ccccc1)C1(S(=O)(=O)c2ccccc2)CCCC1 the results were HPGD block 4%.
CC1(C)Cc2ccccc2-c2n[nH]c(=S)n21 was read as HPGD block -22%.
CCCCn1c(SCC(=O)Nc2nnc(CC)s2)nc2ccccc2c1=O was read as HPGD block -2%.
Screening CCOC(=O)C1CCCN(C(=O)C2CCC(CNS(=O)(=O)c3ccc(NC(C)=O)cc3)CC2)C1 (configuration not stated) returned HPGD block -8%.
CN(C)S(=O)(=O)c1cccc(CSc2cccc[n+]2[O-])c1 was read as HPGD block -14%.
`CC1(C)CC(=O)C(C2(O)C(=O)N(Cc3ccccc3)c3ccccc32)CO1` (configuration not stated) gave HPGD block -7%.
Screening Cc1cc(C)n(/N=C/c2ccccc2)c(=O)c1C#N returned HPGD block -5%.

3 compounds out of the list, sorted by molar mass, lowest first:
For CCC(=O)Nc1nc2ccccc2n1Cc1ccccc1 the results were HPGD block -9%.
Screening CC1=NN(C(=O)Cn2ccc([N+](=O)[O-])n2)C(O)(C(F)(F)F)C1 (configuration not stated) returned HPGD block -5%.
CN(C)S(=O)(=O)c1cccc(CSc2cccc[n+]2[O-])c1 was read as HPGD block -14%.

Further structures.
`Cc1ccc2nc(NC(=O)CCNS(=O)(=O)c3ccc(Br)s3)sc2c1` gave HPGD block -7%.
For N#Cc1cc(C(=O)c2cc(Cl)ccc2O)cn(CC2CCCO2)c1=O (configuration not stated) the results were HPGD block inconclusive.
CN1CCC(=NNC(=O)c2cn(-c3ccccc3)nc2-c2ccccc2)CC1 was read as HPGD block -3%.
Screening COC(=O)c1ccc(C(=O)Nc2cc(Cl)ccc2Cl)cc1NC(=O)c1ccccc1C returned HPGD block inconclusive.
Screening CC(=O)N1c2ccccc2N(Cc2ccc([N+](=O)[O-])cc2)C(=O)C1(C)C returned HPGD block -6%.
Cc1cc([N+](=O)[O-])cc(C)c1OCC(=O)N/N=C/c1ccc(OC(=O)c2ccccc2)cc1 was read as HPGD block -13%.
Cc1ncsc1C(=O)Nc1nc2c(s1)CCCC2 was read as HPGD block -14%.
`C/C(=N/NC(=O)C1CC1(c1ccccc1)c1ccccc1)c1cccs1` (configuration not stated) gave HPGD block -12%.
CCOC(=S)SCC(=O)N1CCc2ccccc2C1C1C(=O)CCCC1=O (configuration not stated) was read as HPGD block -5%.
`O=C(Cc1ccc(Cl)cc1)Nc1ccc(-c2nnc(-c3ccco3)o2)cc1` gave HPGD block inconclusive.
Screening Cc1nn(C(C)C(=O)N2CCN(c3ccccn3)CC2)c(=O)c2cc3occc3n12 (configuration not stated) returned HPGD block -15%.
For COc1ccc(CC(=O)NNS(=O)(=O)c2ccc3ccccc3c2)cc1OC the results were HPGD block -4%.
`O=C(OCn1cncn1)c1ccc(Cl)cc1Cl` gave HPGD block -44%.
Screening CCOC(=O)C1CCCN(CCC(=O)Nc2ccc(C)cc2)C1 (configuration not stated) returned HPGD block -7%.
For CCOc1ccc(OCC)c(N=c2oc3c(C)ncc(CO)c3cc2C(N)=O)c1 the results were HPGD block -11%.
For COC(=O)c1cc2nc(-c3ccccc3)cc(C(F)(F)F)n2n1 the results were HPGD block -14%.
Screening O=C(O)C1CC(=O)N(c2ccc3c(c2)OCCO3)C1 (configuration not stated) returned HPGD block -7%.
CCC(c1nnnn1Cc1ccco1)N1CCN(c2cc(Cl)ccc2C)CC1 (configuration not stated) was read as HPGD block -12%.
`COCCn1c(SCC(=O)Nc2ccc(N3CCOCC3)cc2)nc2ccccc21` gave HPGD block -13%.
CCOc1ccccc1CNC(=O)CCN1C(=O)COc2ccccc21 was read as HPGD block -5%.
For Cc1cccc2sc(NC(=O)C3CCCO3)nc12 (configuration not stated) the results were HPGD block -17%.
COC(=O)c1ccccc1NC(=O)c1ccccc1N(C)S(C)(=O)=O was read as HPGD block -7%.
`Cc1ccc(-n2nc3c(c2NC(=O)c2ccccc2Br)CS(=O)C3)cc1` (configuration not stated) gave HPGD block -22%.
For CC(c1nnc(SCC(=O)N2CCc3ccccc32)n1-c1ccc(Cl)cc1)N(C)C (configuration not stated) the results were HPGD block -11%.
Screening O=C(c1ccc2c(c1)OCO2)N1CCN(c2ccc(F)cc2)CC1 returned HPGD block -10%.
Screening O=[N+]([O-])c1nn(-c2ccc(Cl)cc2)n(O)c1=NCc1cccnc1 returned HPGD block inconclusive.
`Cc1cccc(NC(=O)Nc2cc(C)on2)c1` gave HPGD block -7%.
`Cc1ccc(OCCN2CCN(C(=O)CCC(=O)Nc3nnc(C)s3)CC2)cc1` gave HPGD block -6%.
For COc1ccc2nc(C)cc(Nc3ccc(N4CCOCC4)cc3)c2c1 the results were HPGD block -9%.
`COc1cccc2oc(-c3ccccc3)cc(=O)c12` gave HPGD block inconclusive.
Cc1ccc(S(=O)(=O)N2CCOCC2)cc1NC(=O)COC(=O)C1COc2ccccc2O1 (configuration not stated) was read as HPGD block -10%.
For CCN(CC)CCCn1c(=S)[nH]c2ncccc2c1=O the results were HPGD block -10%.
`CC(C)(C)CC(C)(C)NC(=S)Nc1ccc(S(=O)(=O)N2CCOCC2)cc1` gave HPGD block -5%.
For Cc1cc(=O)[nH]c(SCCOc2cccc(C(F)(F)F)c2)n1 the results were HPGD block -9%.
Screening CSc1ccc(Cl)c(C(=O)NCCOc2cc(C(C)C)ccc2C)c1 returned HPGD block -25%.
`COc1cccc(OCc2cc(/C=N/NC(=O)c3ccn[nH]3)ccc2OC)c1` gave HPGD block -29%.
For O=C(Nc1cccnc1)C1CCCN(S(=O)(=O)c2cccc3nsnc23)C1 (configuration not stated) the results were HPGD block -8%.
Screening CN(C)/C=N/c1c(C#N)cnn1-c1nc2ccccc2s1 returned HPGD block -12%.
Cc1ccc2c(c1)C=CC(C)N2C(=O)c1ccccc1 (configuration not stated) was read as HPGD block -12%.
Screening COC(=O)c1ccc(C(NC(=O)OCc2ccccc2)/C(C)=C/[C@@H](C)C(=O)NCc2ccc(-c3ccccc3)cc2)cc1 (some centres not stated) returned HPGD block -15%.
Screening COCCn1c(=NC(=O)c2ccc(S(=O)(=O)N3CCCc4ccccc43)cc2)sc2cc(S(C)(=O)=O)ccc21 returned HPGD block -17%.
CCC1=C2CC[C@H]3C(=O)N(c4ccccc4)C(=O)[C@H]3[C@H]2[C@@]2(Cc3ccccc3)C(=NCc3ccccc3)OC(=O)N2C1=O was read as HPGD block -4%.
O=C(/N=C1\NC(=O)C(F)(C(F)(F)F)S1)NC1CCCCC1 (configuration not stated) was read as HPGD block 7.9µM*.
`COC(=O)c1c(NC(=O)CSc2nnnn2-c2ccccc2)sc2c1CCC(C)C2` (configuration not stated) gave HPGD block -20%.
`CN1c2ccccc2N(C)C1(C)c1ccccc1` gave HPGD block -11%.
Screening COc1cc([N+](=O)[O-])cc(/C=N/NC(=O)C(C)Nc2ccccc2C)c1O (configuration not stated) returned HPGD block -16%.
CCN(Cc1ccccc1)C(=O)c1ccccc1C was read as HPGD block -20%.
CCCC(=O)Nc1ccc(Cl)c(NC(=S)NC(=O)c2cc3ccccc3o2)c1 was read as HPGD block -17%.
COC(=O)c1c(C)[nH]c(C(=O)/C=C/c2ccc(Cl)cc2)c1C was read as HPGD block -7%.
CSc1nnc2c(n1)OC(c1cn(C)c3ccccc13)N(C(C)=O)c1ccccc1-2 (configuration not stated) was read as HPGD block -11%.
Screening Cc1ccn(CC(=O)O)c(=O)c1 returned HPGD block 1%.
`Cc1cc(OCCCC(=O)NCCN2C(=O)S/C(=C\c3cccnc3)C2=O)ccc1Cl` gave HPGD block -6%.
Screening O=C(Nc1ncc(Cc2ccc(SC(F)F)cc2)s1)c1ccccc1 returned HPGD block inconclusive.
`COc1ccccc1C(=O)Nn1c(-c2cccs2)nc2ccccc2c1=O` gave HPGD block inconclusive.
S=c1[nH]nc(-c2ccc3c(c2)OCO3)n1-c1ccccc1 was read as HPGD block inconclusive.
Screening Cc1ccc2cc(C)c(NCCO)nc2c1 returned HPGD block -12%.
`Cc1ccnc(NS(=O)(=O)c2cccc3nsnc23)c1` gave HPGD block -8%.
For CSCCC1NC(=O)N(CC(=O)Nc2cccc3ccccc23)C1=O (configuration not stated) the results were HPGD block -13%.
O=S(=O)(c1cccc(Cl)c1Cl)N1CCCCC1 was read as HPGD block -8%.
Cc1cc(-c2nc3cccnc3s2)ccc1NS(=O)(=O)c1ccc2c(c1)OCCO2 was read as HPGD block inconclusive.
O=C1c2ccccc2C(Nc2ccc(S(=O)(=O)N3CCOCC3)cc2)N1c1cccnc1 (configuration not stated) was read as HPGD block -6%.
Screening COc1cc(NC(=O)CN(c2ccc(C)cc2)S(=O)(=O)c2c(C)nn(C)c2C)cc(OC)c1 returned HPGD block -23%.
For COc1ccc(/C=C2/N=C(SCC(=O)Nc3cc(C)on3)N(c3ccccc3)C2=O)cc1 the results were HPGD block 27%.
Screening CCCCSc1nnc([C@H](C)NC(=O)OC(C)(C)C)o1 returned HPGD block -30%.
For Cc1cccc(C)c1-n1nnnc1C1(Nc2ccccc2)CCCCC1 the results were HPGD block 1%.
Screening Cc1c(NC(=O)C(C)OC(=O)c2ccc(Cl)nc2)c(=O)n(-c2ccccc2)n1C (configuration not stated) returned HPGD block -3%.
CCC1=C2CC[C@H]3C(=O)N(CC)C(=O)[C@H]3[C@H]2[C@@]2(C)C(=NCC(=O)OC)OC(=O)N2C1=O was read as HPGD block -2%.
Screening O=C1CS/C(=C\S(=O)(=O)c2ccc(Cl)cc2)N1 returned HPGD block -21%.
`COCc1nc2c([nH]1)c(=O)n(C)c(=O)n2CC(C)C` gave HPGD block -17%&-5%.
COC(=O)c1cc2ccsc2n1Cc1nc(-c2ccc(OC)cc2)oc1C was read as HPGD block -12%.
`C=CCn1c(=O)c2ccc(C(=O)NCc3ccccc3)cc2n(Cc2ccc(Cl)cc2)c1=O` gave HPGD block -6%.
Screening CNc1ccc(Br)cc(C(=O)/C=C/c2ccc(OC)cc2)c1=O returned HPGD block -25%.
Screening CCN(CC)C(=O)CN(c1cc(Cl)ccc1OC)S(C)(=O)=O returned HPGD block -9%.
Screening N#C/C(=C\c1ccc(-c2ccc(S(=O)(=O)N3CCOCC3)cc2)o1)C(=O)NC1CC1 returned HPGD block 14µM*.
For O=c1c2ccc(Cl)cc2[nH]c(=S)n1CCC1=CCCCC1 the results were HPGD block -14%.

Reprinted at random: five records from the list.
`COCc1nc2c([nH]1)c(=O)n(C)c(=O)n2CC(C)C` gave HPGD block -17%&-5%.
Screening O=C1CS/C(=C\S(=O)(=O)c2ccc(Cl)cc2)N1 returned HPGD block -21%.
Screening CCCCSc1nnc([C@H](C)NC(=O)OC(C)(C)C)o1 returned HPGD block -30%.
Screening CCN(CC)C(=O)CN(c1cc(Cl)ccc1OC)S(C)(=O)=O returned HPGD block -9%.
`C=CCn1c(=O)c2ccc(C(=O)NCc3ccccc3)cc2n(Cc2ccc(Cl)cc2)c1=O` gave HPGD block -6%.

Further results.
Screening CSc1ccc(/C=C(\C#N)C(=O)NC2CCCCC2)cc1 returned HPGD block -30%.
Screening COc1ccccc1NC(=S)N1CCN(c2ccccn2)CC1 returned HPGD block -29%.
`CCN1CCN(C(=O)c2nn(-c3ccc(C)cc3)c(=O)c3c2c2ccccc2n3C)CC1` gave HPGD block -8%.
Screening O=C1CCC/C(=N\NC(=O)c2ccc(NS(=O)(=O)c3ccc(Br)cc3)cc2)C1 returned HPGD block -17%.
For COc1ccc(C(=O)Oc2cc(/C=N/NC(N)=S)ccc2OC)cc1 the results were HPGD block -2%.
`COc1ccc(OC)c(NC(=O)c2sc3nc(Cc4ccccc4)cc(C(F)(F)F)c3c2N)c1` gave HPGD block -13%.
`Cc1cc(Cl)ccc1NC(=O)C1CCCN1C(=O)c1cccs1` (configuration not stated) gave HPGD block -1%.
CCOC(=O)n1c(SCC(N)=O)nc2ccccc21 was read as HPGD block -7%.
CCCOc1ccc2[nH]cc(C(=O)O)c(=O)c2c1 was read as HPGD block -10%.
`O=C(Nc1cccc(S(=O)(=O)NCc2ccco2)c1)c1cc(-c2ccccc2)nc2ccccc12` gave HPGD block -30%.
`Cc1cc(C)c2c(=O)[nH]c(SCC(=O)Nc3ccc(N(C)C)cc3)nc2n1` gave HPGD block -26%.

Assay outcomes (PubChem BioAssay)
